Assay outcomes (PubChem BioAssay)
GALR2 agonist = agonists of human galanin receptor 2 (GALR2); O43603; GALR2-expressing cells, agonist activation read-out; activation, %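 (tested at 5 µM)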; actives 0.48% (n = 140,000);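 active = above mean plus 3 SD of all compounds, about 5% in these data, not always enough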;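 note: 0% = vehicle buffer wells and 100% = reference agonist at full effect; tested in CHO reporter cells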
Target sequence (O43603 whole entry, looked up): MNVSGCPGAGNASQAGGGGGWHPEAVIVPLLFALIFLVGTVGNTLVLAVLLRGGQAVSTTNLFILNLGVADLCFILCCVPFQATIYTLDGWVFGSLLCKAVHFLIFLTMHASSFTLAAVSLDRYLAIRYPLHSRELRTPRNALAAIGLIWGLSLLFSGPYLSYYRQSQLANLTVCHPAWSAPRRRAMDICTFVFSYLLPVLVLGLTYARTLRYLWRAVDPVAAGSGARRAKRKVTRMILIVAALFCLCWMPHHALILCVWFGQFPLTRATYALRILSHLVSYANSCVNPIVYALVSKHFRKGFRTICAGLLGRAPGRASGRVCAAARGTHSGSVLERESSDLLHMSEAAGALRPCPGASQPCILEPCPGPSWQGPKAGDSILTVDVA
HSV replic up = HSV replication enhancement | HSV replication augmentation in cells, fold increase | maximum fold increase | actives 0.005% (n = 220,000);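 active = peak rise of 1.5-fold or more in the series; tested in PC3 cells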;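 note: first round at 10 µM; read as green reporter fluorescence; hits show the peak of a series up to 25 µM; 1 = signal of infected wells without compound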
Insulin prom inh = TRM-6 insulin promoter activity inhibition. TRM-6 cells (human fetal islet line), insulin promoter-eGFP reporter, imaging; reporter expression induced with tamoxifen. inhibition, % at 2 µM. actives 0.9% (n = 130,000). AID 1273;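 active = inhibition above the mean plus 3 SD, with well images judged a real hit on visual review, cut at about 60% in these data, passing the limit was not always enough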
RGS16-Gao = RGS16-Galphao interaction regulator (human); actives 0.38% (n = 220,000); O15492+P09471; AID 1441; binding response (% of control), % at 10 µM; bead-based flow cytometry RGS16-Galphao binding, fluorescence; actives lie on both sides;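 active = below 25% or above 175%, edge rows of some plates excepted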;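 note: Galphao activated by GDP with aluminum fluoride before binding; 100% = wells without compound and 0% = beads without RGS; some results beyond the cut were filed as inactive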
Target sequence (O15492 whole entry, looked up): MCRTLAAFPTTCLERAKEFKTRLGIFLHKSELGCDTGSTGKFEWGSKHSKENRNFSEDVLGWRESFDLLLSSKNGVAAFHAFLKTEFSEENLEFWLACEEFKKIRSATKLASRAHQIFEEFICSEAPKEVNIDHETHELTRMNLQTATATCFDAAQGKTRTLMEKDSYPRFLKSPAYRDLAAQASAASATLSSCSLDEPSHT
Target sequence (P09471 whole entry, looked up): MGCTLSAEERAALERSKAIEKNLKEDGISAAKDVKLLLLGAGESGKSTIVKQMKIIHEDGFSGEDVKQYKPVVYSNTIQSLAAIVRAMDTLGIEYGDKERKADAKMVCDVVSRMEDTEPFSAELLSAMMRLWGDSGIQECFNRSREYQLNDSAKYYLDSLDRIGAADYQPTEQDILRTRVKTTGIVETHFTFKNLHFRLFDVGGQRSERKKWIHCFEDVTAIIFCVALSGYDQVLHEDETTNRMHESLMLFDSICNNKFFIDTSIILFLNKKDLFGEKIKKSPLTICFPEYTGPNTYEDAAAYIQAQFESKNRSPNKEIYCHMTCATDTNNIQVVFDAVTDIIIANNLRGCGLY
PKD1 kinase inh = PKD1 (human) kinase inhibition; PKD1 kinase fluorescence polarization assay; inhibition, %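 (about 10 µM by stock and volumes)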; actives 0.056% (n = 200,000); AID 797; Q15139;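 active = inhibition of 50% or more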;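 note: controls were vehicle for no effect and a reference inhibitor for full effect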
Insulin prom inh cell count = further read-out of Insulin prom inh, marked with its call; normalized cell count, %; measured here: cell count, toxicity; reference of the scale not given here;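 cells exposed to compound for 48 h; stained nuclei by imaging scaled within each plate; lower means fewer cells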
HSV replic up primary fold = second read-out of HSV replic up, no call of its own (marks repeat the call); fold increase; compound at 10 µM; measured here: primary screen fold increase 10 uM; tested in PC3 cells;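 GFP signal in the first replicate; 1 = infected wells without compound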
Numbers without * were called inactive; i = inactive; x = not tested or not shown.

No.	structure	GALR2 agonist	HSV replic up	HSV replic up primary fold	Insulin prom inh	Insulin prom inh cell count	RGS16-Gao	PKD1 kinase inh
1	CC[C@@H]1CC=C[C@H]2[C@H]1C(=O)N(Cc1ccccc1)[C@H]2c1cc(C)ccc1F	x	i	0.74	x	x	101.3	x
2	CCOc1ccccc1NC(=O)Cc1c(F)cccc1Cl	-0.2	i	1.12	-58.8	93.3	100.9	2.4
3	Cn1c(C(=O)O)cc2cc(F)ccc21	-0.8	i	0.78	-23.1	124.8	x	4.1
4	COc1ccc(C(=O)Nc2cccc(NC(C)=O)c2)cc1OC	-2.3	i	1	50.0	97.1	101.6	-10.2
5	Cc1nn(-c2ccccc2)c2nc(N)c(C#N)c(-c3ccc(F)cc3)c12	2.8	i	0.86	x	x	98.0	-17.4
6	Cc1cc(OCC(=O)N2CCCCCC2)ccc1[N+](=O)[O-]	-0.7	i	1.02	-22.2	70.6	110.6	-5.5
7	CCOc1cc(CNCCO)cc(Br)c1OCc1ccccc1	x	i	0.8	-40.0	129.8	76.8	4.5
8	CCOC(=O)C1CCN(CCC(=O)Nc2cccc(Cl)c2C)CC1	-1.6	i	0.83	16.1	86.0	108.4	-6.4
9	O=C(NCc1cccs1)C(Cc1ccccc1)n1cccc1 (stereo not given)	-0.5	i	1.06	0.0	154.6	105.0	-11.4
10	COC(=O)Nc1ccc(SCC(=O)c2ccccc2)cc1	x	i	0.93	-42.9	119.5	98.0	12.4
11	Clc1ccc2nc(CSc3nc4ccccc4o3)cn2c1	0.6	i	0.99	21.4	178.1	92.4	0.0
12	O=C(N/N=C/c1cccc(O)c1)c1csc2ccccc12	-1.5	i	0.8	-22.9	101.4	103.4	16.5

Record cards (already shown). Values in the order: GALR2 agonist	HSV replic up	HSV replic up primary fold	Insulin prom inh	Insulin prom inh cell count	RGS16-Gao	PKD1 kinase inh
CC[C@@H]1CC=C[C@H]2[C@H]1C(=O)N(Cc1ccccc1)[C@H]2c1cc(C)ccc1F is listed with x	i	0.74	x	x	101.3	x
CCOc1cc(CNCCO)cc(Br)c1OCc1ccccc1 is listed with x	i	0.8	-40.0	129.8	76.8	4.5

Other records
No.	structure	GALR2 agonist	HSV replic up	HSV replic up primary fold	Insulin prom inh	Insulin prom inh cell count	RGS16-Gao	PKD1 kinase inh
13	CC1=CS(=O)(=O)CC1Sc1nc2ccccc2[nH]1 (stereo not given)	0.9	i	1.07	-17.2	129.8	102.0	1.8
14	Cc1c(NC(=O)CN2C(=O)NC(C)(c3ccc4c(c3)OCCO4)C2=O)c(=O)n(-c2ccccc2)n1C (stereo not given)	0.1	i	0.96	x	x	102.3	-8.1
15	COCCCNC(=O)/C=C/c1c(Cl)cccc1Cl	-0.3	i	0.99	31.6	138.9	115.1	-7.6
16	Cc1nn(-c2ccccc2)c(N)c1-c1ccccc1	x	i	0.91	57.1	96.3	103.4	-4.1
17	Cc1ccc(-c2cc(C(F)F)n3ncc(C(=O)N4CCc5ccccc54)c3n2)cc1	x	i	0.76	-57.9	12.8	98.8	-1.5
18	O=C(OCC(=O)N1CCCc2ccccc21)c1cccnc1Cl	-0.8	i	1.19	x	x	100.5	-2.9
19	Cc1cc(C(=O)NNC(=O)CCCCC(=O)NNC(=O)c2cc(C)[nH]n2)n[nH]1	0.6	i	0.98	44.0	51.0	81.7	-7.5
20	Cn1c(=O)c2c(nc(NCCCN3CCOCC3)n2Cc2ccc(Cl)c(Cl)c2)n(C)c1=O	-0.5	x	x	42.9	60.0	x	-12.7
21	O=C(O)COc1ccc(/C=C/c2nc3ccc([N+](=O)[O-])cc3s2)cc1	x	i	1.24	x	x	98.7	x
22	CCC(C)[C@H](NC(=O)NCc1ccccc1Cl)C(=O)O (stereo not given in full)	-3.0	i	0.81	x	x	101.0	13.1
23	O=C(CCC(=O)OCCCC(F)(F)C(F)(F)F)Nc1ccccc1	-0.9	i	1.18	9.4	123.1	101.1	3.6
24	Cc1c(C(=O)OCC(=O)Nc2c(C)n(C)n(-c3ccccc3)c2=O)cccc1[N+](=O)[O-]	x	i	0.71	x	x	103.8	-3.1
25	Cc1cccc(Cn2c(O)c(N=NC(=S)Nc3ccccc3F)c3ccccc32)c1	x	i	1.02	x	x	101.4	6.4
26	Cc1ccc(C(=O)NN2C(=O)C3C4C=CC(C4)[C@@H]3C2=O)cc1 (stereo not given in full)	x	i	1.12	x	x	101.7	x
27	COc1ccc(-c2nc(-c3ccccc3)nc(Cl)c2C#N)cc1	-4.4	i	0.89	12.2	136.7	101.2	-4.3
28	Cc1cc(NS(=O)(=O)c2ccc(NC(=O)c3ccoc3C)cc2)nc(C)n1	-0.2	i	0.95	x	x	100.5	-4.4
29	O=C(CS(=O)(=O)Cc1ccccc1)N1CCN(c2cccc(C(F)(F)F)c2)CC1	-1.2	i	0.86	-275.0	70.0	100.0	-4.4
30	CC(=O)OC(C(=O)NCCN1CCOCC1)c1c(F)cccc1F (stereo not given)	x	i	1.21	x	x	99.5	2.4
31	O=C(Cc1ncc(C(F)(F)F)cc1Cl)Nc1cccc(Br)c1	-0.7	i	0.87	20.0	43.0	93.4	-1.0
32	CNc1nc(C)c(C(=O)OCc2ccccc2)s1	-2.5	i	0.94	27.6	119.2	101.5	-5.3
33	CCc1ccc(NC(=O)C(=O)NCC(O)c2ccccc2)cc1 (stereo not given)	x	i	0.94	x	x	95.2	-1.8
34	Cc1cc(NC(=O)c2c(Br)c(C)nn2C)no1	-1.0	i	1.04	-16.7	103.5	56.2	17.8
35	Cc1ccc(OC(F)F)c(NC(=O)Nc2cccc(C(F)(F)F)c2)c1	1.3	i	0.71	-24.1	93.3	60.2	6.2
36	COc1ccc(C/C(N)=N/OC(=O)c2cccc([N+](=O)[O-])c2)cc1	-0.3	i	1	-7.7	117.8	111.4	-5.6
37	O=c1[nH]c(Cc2ccccc2)nc2c1oc1ccccc12	-1.2	i	1.06	0.0	120.5	97.1	-0.3
38	COC(=O)NNC(=O)COc1ccccc1C	-0.7	i	0.97	-30.8	124.6	99.7	-1.0
39	O=C(CC12CC3CC(CC(C3)C1)C2)N1CCCOC1	-2.0	i	0.93	-31.2	185.5	105.4	2.6
40	N/C(Cc1ccccc1)=N\OC(=O)c1cccc2ccccc12	-1.3	i	0.79	-30.8	45.0	100.7	-9.7
41	O=C(O)CCCCCCCCCCP(=O)(c1ccccc1)c1ccccc1	x	i	0.93	x	x	101.2	x
42	COc1ccccc1Cn1c(=O)c2ccccc2n2c(Sc3ncnc4sccc34)nnc12	-0.6	i	0.95	78.6*	126.8*	97.0	-0.4
43	Cc1cc(Cl)c(S(=O)(=O)N(C)C)cc1OCC(N)=O	-1.2	i	0.93	-323.3	56.8	104.9	-5.8
44	CC(OC(=O)CCC(=O)c1cccs1)C(=O)Nc1ccccc1[N+](=O)[O-] (stereo not given)	x	i	0.93	0.0	66.7	83.0	3.7
45	Cc1ccc(NC(=O)C(C)Sc2nc(=O)cc(N)n2-c2ccccc2)cc1 (stereo not given)	-0.6	i	0.977	-73.3	118.9	94.0	-6.8
46	N/C(=N\OC(=O)c1ccc(Cl)cc1Cl)c1ccccc1	-1.2	i	0.96	-6.7	84.8	102.0	-3.6
47	O=C(CN1CCCCC1)NC(=O)NCc1ccccc1	0.2	i	0.94	-3.3	108.0	106.8	-1.3
48	CC(=O)c1c(C)[nH]c(C(=O)Nc2ccc(Cl)c(S(=O)(=O)N(C)C)c2)c1C	x	i	0.96	x	x	101.4	-5.0
49	O=C(C1=C[C@H](c2csc3ccccc23)C[C@H](OCc2ccc(CO)cc2)O1)N1CCN(Cc2ccc3c(c2)OCO3)CC1	x	i	0.97	x	x	92.4	2.1
50	Cc1ccc(/C=N/N2CCN(Cc3ccccc3)CC2)cc1	x	i	1.06	14.3	124.4	98.8	5.4
51	O=C(Nc1nc2n(n1)C(c1ccccc1)C=C(c1ccccc1)N2)c1ccco1 (stereo not given)	-1.4	i	1.09	x	x	92.6	10.1
52	CCOC(=O)c1nnn(-c2nonc2-n2cccc2)c1CN1CCC(C(=O)OCC)CC1	-2.3	i	0.88	x	x	103.2	-5.0
53	O=C(CN1C(=O)C2CC=C(Cl)CC2C1=O)Nc1ccc(C(=O)O)cc1 (stereo not given)	-2.6	i	0.95	18.5	159.5	104.0	-2.1
54	CC(=O)C(=Cc1cc(C)n(-c2ccccc2)c1C)C(C)=O	x	i	0.98	0.0	210.8	101.7	20.0
55	Cc1ccc(C#N)c(SCc2cc3c(cc2Cl)OCO3)n1	-1.1	i	1.13	x	x	139.8	-5.2
56	OC(C#CCN1CCCC1)c1ccccc1 (stereo not given)	-2.2	i	1.08	x	x	106.0	-11.3
57	CC(=O)c1ccc(N2CCN(C(=O)c3ccc(Br)cc3)CC2)c(F)c1	-2.0	i	1.09	0.0	92.7	95.1	-4.3
58	COC(=O)c1sc2ccccc2c1NC(=O)c1ccc(S(=O)(=O)N2CC(C)CC(C)C2)cc1 (stereo not given)	-1.9	i	0.93	26.7	102.9	100.9	4.9
59	O=c1c2c([nH]c3ccccc13)C(=C1CCCC1)CC2	-0.9	i	1.09	-55.6	147.6	101.7	-6.3
60	CCOCCCNS(=O)(=O)c1ccc(NC(=O)CN2C(=O)c3ccccc3C2=O)cc1	x	i	1.03	0.0	108.9	104.5	-6.5

A second format for some results above.
Order of results – GALR2 agonist | HSV replic up | HSV replic up primary fold | Insulin prom inh | Insulin prom inh cell count | RGS16-Gao | PKD1 kinase inh
22	CCC(C)[C@H](NC(=O)NCc1ccccc1Cl)C(=O)O (stereo not given in full)
    -3.0 | i | 0.81 | x | x | 101.0 | 13.1
23	O=C(CCC(=O)OCCCC(F)(F)C(F)(F)F)Nc1ccccc1
    -0.9 | i | 1.18 | 9.4 | 123.1 | 101.1 | 3.6

Following part.
No.	structure	GALR2 agonist	HSV replic up	HSV replic up primary fold	Insulin prom inh	Insulin prom inh cell count	RGS16-Gao	PKD1 kinase inh
61	CCCN(CCC)c1nc(N)nc(-c2cc(Cl)ccc2OC)n1	-2.6	i	0.79	-82.9	102.1	101.7	-3.0
62	CCOc1ccccc1-n1c(C)cc(C=O)c1C	x	i	0.92	x	x	91.3	-2.7
63	CNC(=S)NNC(=O)c1cccn(Cc2ccc(Cl)cc2Cl)c1=O	-0.5	x	x	20.6	97.4	97.6	-4.4
64	CCCC/C(O)=C1\C(=O)CC(C)(C)CC1=Nc1ccccc1OC	-2.8	i	0.97	15.4	71.7	104.9	12.7
65	CCOc1ccc(C2SCC(=O)N2c2c(C)n(C)n(-c3ccccc3)c2=O)cc1 (stereo not given)	-1.7	i	0.86	-3.2	95.7	107.5	-9.8
66	O=C(CNC(=O)c1ccncc1)N/N=C/c1ccc(O)cc1O	x	i	1.06	x	x	83.5	x
67	CCc1nc(C)ccc1OCC(=O)N1CCc2c([nH]c3ccccc23)C1c1ccccn1 (stereo not given)	x	i	0.88	-75.0	93.3	99.9	-1.3
68	O=c1c(Cc2c(F)cccc2Cl)c(O)ccn1C1CCCCCC1	x	i	1.02	x	x	99.0	-10.2
69	Cc1ccc(NC(=O)CCS(=O)(=O)c2cccc3nonc23)cc1	x	i	1.13	-9.1	91.5	100.0	4.1
70	C=CCNc1ncnc2c1[nH]c1ccccc12	-1.8	i	0.973	56.2	92.7	105.0	3.0
71	CCOC(=O)C(NC(=O)CC)C(O)c1cccc([N+](=O)[O-])c1 (stereo not given)	-0.3	i	1.03	15.9	95.8	36.4	3.5
72	O=C(CSc1ncn(-c2ccccc2)n1)NCc1ccccc1	-0.2	i	0.83	-39.5	48.1	101.5	-6.1
73	CN(C)c1ccc(C2C3CCCc4ccccc4C3=NN2C)cc1 (stereo not given)	x	i	0.95	x	x	101.1	x
74	CCCNc1ccc(S(=O)(=O)N(CC)CC)cn1	-3.0	i	0.92	-3.9	99.2	119.8	-10.9
